# Calb FLC: C. albicans growth modulation with fluconazole; C. albicans CaCi-2 (fluconazole-resistant clinical isolate) + fluconazole, Alamar Blue growth, 48 h; growth inhibition, % (no concentration beside the values); 300,000 tested, 0.57% active;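 active means most replicates above 75%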;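 further: all wells also contain fluconazole at 8 µg/ml as a sub-toxic cotreatment; 0% = median of DMSO wells and 100% = median of geldanamycin control wells; wells of about 8 µL received 7.5 nL stock; the first replicate is given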
# Beta apoptosis: beta cell apoptosis inhibition. AID 435005. 300,000 tested, 0.8% active. INS-1E cytokine-induced death, ATP luminescence, 48 h; percent of positive-control rescue, neutral wells zero. protection from apoptosis, % (test concentration not listed);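 active means all replicates at 75% or more, or half of them and the mean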;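 further: 0% = cytokine-treated negative control wells and 100% = positive control rescue; higher means more ATP so stronger rescue from cytokine killing; wells of about 40 µL received 100 nL stock; the first replicate is given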
# B2AR ag: human beta-2 adrenergic receptor agonism by FAP | Am2.2-beta2AR cells, FAP receptor internalization, flow cytometry; reference of the scale not given here | response, % (test concentration not listed) | 340,000 tested, 0.43% active | AID 504454;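 active means response above a set limit, near 3 SD of response in nonfluorescent compounds, cut at about 42% in these data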;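 further: stock transfer was 100 nL into about 11 µL; a reference agonist was the positive control; negative values mostly stem from fluorescent compounds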
# Target sequence (P07550 whole entry, looked up): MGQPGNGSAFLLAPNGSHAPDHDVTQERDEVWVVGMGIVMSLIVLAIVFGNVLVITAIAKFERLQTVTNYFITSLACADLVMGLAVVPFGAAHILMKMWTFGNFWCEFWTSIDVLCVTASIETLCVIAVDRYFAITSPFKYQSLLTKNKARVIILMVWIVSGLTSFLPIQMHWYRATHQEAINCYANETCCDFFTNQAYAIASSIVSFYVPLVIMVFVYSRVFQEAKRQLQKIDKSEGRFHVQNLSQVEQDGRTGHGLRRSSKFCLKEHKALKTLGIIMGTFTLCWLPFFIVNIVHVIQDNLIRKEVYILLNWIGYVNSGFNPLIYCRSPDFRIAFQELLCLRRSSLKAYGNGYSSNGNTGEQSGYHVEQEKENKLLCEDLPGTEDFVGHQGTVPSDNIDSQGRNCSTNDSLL
# rRNA inh HTS: selective bacterial rRNA inhibition in E. coli; E. coli WT GFP vs humanized-ribosome RFP mutants, fluorescence, 24 h; hits give low values; DMSO median 0, no signal -100; GFP signal change (wild-type ribosome), % (concentration not given with the values); 350,000 tested, 1.6% active;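 active means significant combined selectivity score with lowered wild-type GFP, culture density cut under 30%, mutant RFP and density less affected; inactive means any of these conditions unmet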; further: one replicate is shown; some compounds called inactive have numbers as strong as hits
# A1 inh: inhibitors of the anti-apoptotic protein A1, read as caspase activation | MEF A1-2A-BIM cells, Caspase-Glo 3/7 luminescence, 3 h; percent of clofoctol response, vehicle zero | AID 2462 | caspase activation, % (test concentration not listed) | 330,000 tested, 0.066% active;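 active means over half of replicate activation scores above 10%, or exactly half above 10 with the replicate mean above 10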;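 further: wells of about 30 µL received 50 nL stock; many hits fall short of the cut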
# ALR H2O2 inh: inhibitors of human sulfhydryl oxidase ALR; purified ALR, DTT oxidation, H2O2 HRP-luminol luminescence; P55789; 290,000 tested, 3.8% active; inhibition, % (concentration not given with the values);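 active means mean and each replicate at 75% or more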;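 further: stock transfer was 7.5 nL into about 7.5 µL; 0% = neutral wells and 100% = wells with inactivated enzyme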
# Target sequence (P55789 whole entry, looked up): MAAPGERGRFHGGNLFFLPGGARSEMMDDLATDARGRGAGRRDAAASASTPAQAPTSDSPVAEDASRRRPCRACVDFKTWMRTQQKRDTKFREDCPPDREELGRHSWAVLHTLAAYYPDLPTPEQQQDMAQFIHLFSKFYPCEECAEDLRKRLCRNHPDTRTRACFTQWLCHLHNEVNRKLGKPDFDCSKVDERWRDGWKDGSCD
# T cruzi inh: T. cruzi replication inhibition | T. cruzi beta-gal in NIH3T3, luminescence, 90 h | inhibition, % (concentration not given with the values) | 300,000 tested, 1.4% active | AID 1885;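 active means mean inhibition across valid replicates above about 55%, limit read from the data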;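 further: signal also drops with host cell toxicity which is not excluded here; 0% = plate median of DMSO wells and 100% = zero luminescence signal; higher percent means less beta-gal luminescence so fewer parasites; stock transfer was 50 nL into about 50 µL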
# LANA-H2B inh: blocks KSHV LANA binding to histone H2A/H2B; Q9QR71; cell-free LANA-H2A/H2B peptide, fluorescence polarization; inhibition, % (no concentration beside the values); 320,000 tested, 0.6% active; AID 2629; in the data active means inhibition mostly above about 10%, no sharp cut-off; inactive means mostly below about 6.7%;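 further: stock transfer was 7.5 nL into about 10 µL; 0% = median of vehicle wells and 100% = median of positive control wells; one replicate is shown; the record names a cut of 25% in any replicate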
# rRNA inh HTS OD600: further read-out of rRNA inh HTS, marked with its call; OD600 change, %; measured here: OD600 growth;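 optical density of the mix in the first replicate; 0 = DMSO median and -100 = no signal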
# rRNA inh HTS RFP: further read-out of rRNA inh HTS, marked with its call; RFP signal change, %; measured here: RFP humanized mutant strains;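 first replicate; 0 = DMSO median and -100 = no signal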
# * = called active by the depositor; . = no result given. These rows are one share of the data; count on the stated rates, not on these rows.
SMILES,Calb FLC,Beta apoptosis,B2AR ag,rRNA inh HTS,rRNA inh HTS OD600,rRNA inh HTS RFP,A1 inh,ALR H2O2 inh,T cruzi inh,LANA-H2B inh
O=C(Nc1sc2c(c1C(=O)O)CCC2)c1cccs1,-1,-1,-3,.,.,.,-5.8,20,-3,2.0
COCCNC(=O)/C(C#N)=C/c1ccc(-c2ccc(OC)cc2[N+](=O)[O-])o1,-10,-2,2,.,.,.,0.7,-13,-1,-4.5
CCOCCCNC(=O)C1CCN(S(=O)(=O)c2ccc3nc4c(c(C(=O)O)c3c2)CCCCC4)CC1,-10,-2,-7,8,11,-2.0,-1.0,-7,-5,-1.1
CCc1cc2c(=O)n(CC(=O)NC3CCCCC3)cnc2s1,-12,-3,-14,7,22,2.7,-0.2,-2,-1,-1.0
COc1cc2c(cc1NC(=O)COC(=O)[C@@H](NS(=O)(=O)c1cccc(Cl)c1)C(C)C)oc1ccccc12,1,0,-7,.,.,.,-0.7,6,9,-5.7
Cc1ccccc1-n1c(C)cc(/C=C2/C(=N)N3C(c4ccccc4)=CSC3=NC2=O)c1C,13,7,12,10,16,0.7,-1.3,-1,37,5.1
Oc1c(C(c2ccccc2)N2CCCCC2)sc2ncnn12 (stereo not drawn),-4,-4,8,2,9,2.1,-0.7,-2,0,-0.8
CC(=O)Nc1nc2ccc(NC(=O)c3ccco3)cc2s1,-1,1,-22,.,.,.,-3.8,-2,-5,-0.5
Cc1c(C(=O)N2CCN(c3ccccc3)CC2)sc2ncnc(N3CCC(C)CC3)c12,3,-1,.,.,.,.,-0.2,11,19,-3.5
O=C(Nc1ccccc1N1CCOCC1)c1ccc(Cl)nc1,9,-1,-12,22,21,2.4,0.3,.,-8,2.2
CC(C)Cc1nc(SCC(=O)N2CC(C)OC(C)C2)c2c(=O)n(C)c(=O)n(C)c2n1 (stereo not drawn),-8,-1,-2,8,7,-0.4,0.4,-6,11,0.3
O=C(COC(=O)/C=C/c1ccccc1)NCC1CCCO1 (stereo not drawn),-7,-1,6,20,14,2.3,-0.1,11,-5,-1.7
Fc1ccccc1COc1ccccc1CNCc1ccncc1,-11,-6,-10,-3,-11,0.5,0.4,4,65*,1.6
COc1ccc(OCCSc2ncn[nH]2)cc1,-6,-3,1,.,.,.,-2.4,-11,-5,2.3
O=C(NCCCn1ccnc1)C(=O)NCC(c1ccco1)N1CCN(c2ccc(F)cc2)CC1 (stereo not drawn),-2,-26,3,-7,-7,-5.9,1.3,98*,-17,-7.9
CCOc1ccc(S(=O)(=O)N2CCC(C(=O)N3CCc4ccccc4C3)CC2)cc1,2,-2,-4,-11,-27,-2.0,0.1,-12,2,1.8
COc1cc2oc3ccc(C#Cc4ccc(N)cc4)cc3c(=O)c2cc1OC,1,.,17,-15,-16,1.5,-0.4,-5,13,-0.1
Cc1ccc(S(=O)(=O)N2CCCC2CNC(=O)C(=O)Nc2ccc(F)cc2)cc1 (stereo not drawn),30,4,-11,1,-2,0.0,-0.9,-3,-1,-5.9
Nc1nc(N2CCOCC2)cc(=O)[nH]1,-6,-5,3,.,.,.,-0.1,-1,-6,1.2
Cc1ccc(C(=O)NCCc2cc3ccc(C)c(C)c3[nH]c2=O)cc1[N+](=O)[O-],3,3,-5,6,2,-2.4,0.9,0,-4,7.3

# In the list so far, these contain a nitro group on carbon:
SMILES,Calb FLC,Beta apoptosis,B2AR ag,rRNA inh HTS,rRNA inh HTS OD600,rRNA inh HTS RFP,A1 inh,ALR H2O2 inh,T cruzi inh,LANA-H2B inh
COCCNC(=O)/C(C#N)=C/c1ccc(-c2ccc(OC)cc2[N+](=O)[O-])o1,-10,-2,2,.,.,.,0.7,-13,-1,-4.5
Cc1ccc(C(=O)NCCc2cc3ccc(C)c(C)c3[nH]c2=O)cc1[N+](=O)[O-],3,3,-5,6,2,-2.4,0.9,0,-4,7.3

# Following part
SMILES,Calb FLC,Beta apoptosis,B2AR ag,rRNA inh HTS,rRNA inh HTS OD600,rRNA inh HTS RFP,A1 inh,ALR H2O2 inh,T cruzi inh,LANA-H2B inh
CCOC(=O)C(C)(C)N(Cc1ccc(Cl)cc1)S(=O)(=O)c1ccc(Cl)c([N+](=O)[O-])c1,-1,-1,.,.,.,.,0.3,-5,4,4.6
c1ccc2sc(N3CN(CCN4CCOCC4)CN(c4nc5ccccc5s4)C3)nc2c1,-1,0,-2,.,.,.,-0.9,.,4,5.3
CC(C)N(CCNC(=O)C1CCN(S(=O)(=O)N2CCOCC2)CC1)Cc1ccccc1,-9,-1,0,.,.,.,-0.2,2,4,-3.0
Cc1cccc(NC(=S)NNC(=O)c2nn(C)cc2Cl)c1,3,-3,13,.,.,.,-0.6,89*,-5,-6.4
Cc1cc(NC(=O)C(C)SCC(=O)N(C)CC(=O)Nc2ccc(Br)cc2C)no1 (stereo not drawn),0,-2,-2,0,-2,-5.6,1.3,4,4,-2.0
COc1ccc(C(=O)N/C(=C\c2ccco2)C(=O)NC2CCS(=O)(=O)C2)cc1 (stereo not drawn),3,-11,3,19,7,5.6,0.0,-1,5,-2.3
CCCC(C)NC1=NCCCCC1 (stereo not drawn),7,-3,-7,10,10,-2.5,0.5,-4,-21,4.5
CC(=O)c1ccc(NC(=O)COc2ccccc2C(=O)Nc2ccccc2)cc1,1,10,-4,-3,-8,-4.1,-0.1,2,7,-1.7
COc1ccc(NC(=O)c2ccc(COc3ccccc3)o2)cc1,5,5,5,.,.,.,-2.1,-4,4,2.3
CN(CC(=O)Nc1cc(S(=O)(=O)N2CCCCCC2)ccc1Cl)Cc1ccc2c(c1)OCO2,.,12,-7,2,2,0.5,-0.8,-5,.,4.4

# Record cards (already shown).
# Record of COc1ccc(C(=O)N/C(=C\c2ccco2)C(=O)NC2CCS(=O)(=O)C2)cc1 (stereo not drawn) = Calb FLC = 3; Beta apoptosis = -11; B2AR ag = 3; rRNA inh HTS = 19; rRNA inh HTS OD600 = 7; rRNA inh HTS RFP = 5.6; A1 inh = 0.0; ALR H2O2 inh = -1; T cruzi inh = 5; LANA-H2B inh = -2.3
# Record of CN(CC(=O)Nc1cc(S(=O)(=O)N2CCCCCC2)ccc1Cl)Cc1ccc2c(c1)OCO2 = Calb FLC = .; Beta apoptosis = 12; B2AR ag = -7; rRNA inh HTS = 2; rRNA inh HTS OD600 = 2; rRNA inh HTS RFP = 0.5; A1 inh = -0.8; ALR H2O2 inh = -5; T cruzi inh = .; LANA-H2B inh = 4.4
# Record of CCOC(=O)C(C)(C)N(Cc1ccc(Cl)cc1)S(=O)(=O)c1ccc(Cl)c([N+](=O)[O-])c1 = Calb FLC = -1; Beta apoptosis = -1; B2AR ag = .; rRNA inh HTS = .; rRNA inh HTS OD600 = .; rRNA inh HTS RFP = .; A1 inh = 0.3; ALR H2O2 inh = -5; T cruzi inh = 4; LANA-H2B inh = 4.6

# Further structures.
SMILES,Calb FLC,Beta apoptosis,B2AR ag,rRNA inh HTS,rRNA inh HTS OD600,rRNA inh HTS RFP,A1 inh,ALR H2O2 inh,T cruzi inh,LANA-H2B inh
Cc1ccc(-n2[nH]c(C)c(/C=C3/C=Nc4ccccc43)c2=O)cc1C,-4,-9,5,.,.,.,0.5,-2,-3,-0.2
CCC1CN(C(=O)N2CCC(C(=O)NCCc3ccccc3)CC2)c2ccccc2O1 (stereo not drawn),8,-2,11,3,7,-3.6,0.0,-6,10,-7.8
O=C(c1ccccc1[N+](=O)[O-])N1CCC(Cc2ccccc2)CC1,-13,-2,4,-28,-34,-8.3,-1.5,-7,-2,11
CS(=O)(=O)Nc1ccc(-c2n[nH]c(=S)n2-c2ccccc2)cc1,0,-4,11,.,.,.,0.1,97*,-16,-2.0
COc1ccc(CNC(=O)CCCCCn2c(SCC#N)nc3cc4c(cc3c2=O)OCO4)cc1,-21,-3,-7,.,.,.,-0.4,-5,24,-0.5
O=S(=O)(NCc1ccco1)c1ccc2ccccc2c1,-9,-2,5,-3,-7,4.4,0.3,-6,-6,-3.1
CC(=O)Oc1ccc2c(=O)c(-c3ccccc3)coc2c1,5,-4,-2,-24*,-11*,-1.2*,-5.6,6,-18,4.7
CC(C)Cn1c(-c2cc([N+](=O)[O-])ccc2Cl)nc2c1c(=O)[nH]c(=O)n2Cc1ccccc1,-1,12,0,.,.,.,0.0,1,39,2.2
O=C(c1cc(F)c(F)c(F)c1F)N1CCN(C(=O)C2CCCO2)CC1 (stereo not drawn),.,-3,2,5,0,3.0,0.6,-3,.,-3.5
CCN(CC)c1ccc(/C=N/NC(=S)NCc2ccccc2)cc1,10,.,0,.,.,.,-0.1,14,38,0.1
CC(=O)O/N=C/c1c(N2CCOCC2)n(C)c2ccccc12,99*,1,3,.,.,.,-0.3,56,61*,6.5
O=CNCCCc1nc2ccccc2n1CCc1ccccc1,-3,5,-9,2,12,0.4,0.9,-6,-6,-1.7
COc1ccc(/C=N/NC(=S)Nc2ccccc2)cc1COc1cccc(C)c1C,-3,17,18,-9,-13,-1.1,-0.2,-18,-1,-3.8
COc1ccc(-c2nn(-c3ccccc3)cc2C(=O)NC2CCC(C)CC2)cc1 (stereo not drawn),6,10,-20,3,4,-0.4,-0.1,-4,29,3.3
CCOC(=O)Cn1nc(-c2ccc(F)cc2)oc1=O,2,2,3,.,.,.,-0.2,-10,-13,-3.8
NS(=O)(=O)c1ccc(CCNC(=O)CCCNC(=O)c2ccc(Cl)cc2)cc1,-3,0,-1,0,11,0.3,-0.1,0,-7,-6.1
O=C(Nc1ccccc1)Nn1cnnc1,-3,-2,2,10,15,2.5,0.7,-13,-3,1.6
Cc1nc(C)c(C(=O)Nc2cccc(Cl)c2)o1,22,0,-3,.,.,.,-0.9,-5,-20,0.5
CC(C)(C)OC(=O)N/N=C\c1cccnc1,2,-6,4,16,16,-0.9,-0.6,-6,3,1.0
CCCCNC(=O)CNC(=O)c1nn(-c2ccc(OC)cc2OC)c(=O)c2ccccc12,-5,-5,-5,10,3,-4.7,0.1,.,-6,4.8
CN1CCCC1CCNc1ccc2oc3ccccc3c(=O)c2c1 (stereo not drawn),4,1,.,-6,4,-3.3,-0.7,5,36,0.9
N#Cc1nc(-c2cccs2)oc1N1CCN(Cc2ccccc2)CC1,16,3,-31,-24,-23,0.4,0.1,-5,14,-7.3
CC(CC(=O)O)CC(=O)Nc1ccccc1C(=O)O (stereo not drawn),0,-5,20,.,.,.,1.7,-4,-12,-7.2
COCCCn1c(SCC(=O)n2c(C)c(C)c3ccccc32)nnc1-c1ccoc1C,5,-1,-12,.,.,.,2.3,9,-13,2.1
O=C(Nc1nccs1)C(c1ccccc1)N1CCCCC1 (stereo not drawn),-2,-1,-8,3,-2,0.2,0.1,26,-17,5.3
c1ccc(Nc2cc(Nc3ccccc3)[nH]n2)cc1,0,-4,1,.,.,.,0.5,61,24,1.0
COCCNc1nc2c(c(=O)n(Cc3ccccc3F)c(=O)n2C)n1C,-6,1,4,2,-1,-0.5,-0.4,.,-2,-1.1
C=CCOc1nc2c(c(=O)n(C)c(=O)n2C)n1Cc1ccc(Cl)cc1,-14,61,-6,.,.,.,-0.4,.,-22,6.2
CCN(Cc1ccncc1)C(=O)c1cc(COc2ccc(C)c(C)c2)on1,6,-9,-4,-11,-23,11,0.4,0,56*,1.9
CCC(CC)C(=O)c1c[nH]c(C(=O)NCc2ccco2)c1,-2,-1,5,.,.,.,0.2,-17,10,0.3
CC(C)C[C@@H](CO)N1CCN(Cc2ccc([N+](=O)[O-])cc2)CCC1=O,-10,1,5,8,11,0.2,1.4,.,-13,4.9

# Screens as filed in PubChem BioAssay.
